# Assay outcomes from PubChem.
# ClpP mod – qHTS Assay for Activators of ClpP; ATP-dependent Clp protease proteolytic subunit (Bacillus subtilis (strain 168)), P80244; purified B. subtilis ClpP, FRET peptide cleavage, 20 min; Potency, µM (titrated, usually from 57.5 µM), inactives show at the top dose activity change, negative = active; actives 1.9% (n = 340,000); AID 651965, 2013; active = well fitted falling curve with a large enough effect; inconclusive = small, poorly fitted or top-dose-only effect; inactive = no such curve, though single readings can be large or run the other way; further: potency means the concentration at half of the fitted maximal effect; the source files actives as falling curves though it sought activators and does not explain the sign; nearly all actives have a fitted effect of over 65% in size; many hits overshoot -100%
# Target sequence (P80244 whole entry, looked up): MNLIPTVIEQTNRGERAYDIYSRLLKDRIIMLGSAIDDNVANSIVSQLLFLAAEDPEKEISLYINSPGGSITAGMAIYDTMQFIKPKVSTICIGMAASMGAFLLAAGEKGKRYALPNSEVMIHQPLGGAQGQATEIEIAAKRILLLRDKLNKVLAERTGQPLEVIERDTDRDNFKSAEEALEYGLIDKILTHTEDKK
#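 FRET quenching reversal measured ClpP activation: 10 microg/mL B. subtilis ClpP at pH 8 with the FRET-FV decapeptide, read at 430 nm after 320 nm excitation. The 20-min minus 0-min signal was scaled between DMSO/no-enzyme wells and ADEP (5.8 microM final).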
# TRPV1 PAM – potentiators of human vanilloid receptor 1 (TRPV1); Q8NER1; TRPV1-expressing cells, Fluo-8 calcium influx, capsaicin EC20 potentiation; host cell line not named in the record; control for the full effect not named in the record; potentiation, % at 8.33 µM; actives 0.02% (n = 320,000); AID 540277; active means potentiation above 80%; inconclusive means 30% to 80%; inactive means below 30%; further: 0% is about no effect
#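 Cells expressing TRPV1 were dye-loaded with Fluo-8 and read kinetically: 10 s baseline, 3 min after compound (agonist portion), then 2 min after EC20 capsaicin (allosteric enhancer portion). Calcium-bound dye fluorescence at 480/520 nm.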
# gsp antagonist – antagonizes gsp, the McCune-Albright syndrome mutation; actives 0.4% (n = 340,000); gsp-mutant cells, cAMP HTRF, 30 min; control for the full effect not named in the record; AID 624288; Potency, µM (titrated, usually from 76.9 µM), for the others: top-dose activity change, negative = inhibition, usual class: inhibitors; active = falling curve of any shape with a large fitted effect; inconclusive = falling curve, mostly with a smaller effect; inactive = flat or rising curve; cell line not stated here;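 further: intracellular cAMP measured with PDE inhibitor Ro 20-1724 present during compound exposure; potency means the concentration at half of the fitted maximal effect; on the % scale 0 is the no-effect control and ±100 the full control effect; nearly all actives have a fitted effect of over 65% in size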
#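 HTRF cAMP measurement after 30 min RT detection following 30 min, 37C compound treatment alongside […] (added as 300 uM solution) in G418-selected cells seeded at 2000/well and grown 16–24 h.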
# gsp agonist – gsp mutant agonism; gsp mutant cells, cAMP HTRF, 30 min; control for the full effect not named in the record; Potency, µM (highest dose often 76.9 µM), without a hit: top-dose activation (cAMP increase), usual class: activators; actives 0.13% (n = 340,000); AID 624287; active = well fitted activation curve with a large enough effect; inconclusive = small, poorly fitted or top-dose-only effect, or another doubt; inactive = no such curve, though single readings can be large or run the other way; cell line not stated here;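 further: phosphodiesterase inhibitor Ro 20-1724 added with compounds to block cAMP breakdown; potency means the concentration at half of the fitted maximal effect; nearly all actives have a fitted effect of over 60% in size; about a fifth of the inactives were tested at one dose only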
#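 Cells in DMEM/10% FBS with G418 were pretreated with compounds in DMSO plus […] (300 uM stock) for 30 min at 37C. cAMP was measured by HTRF (cAMP-d2 plus anti-cAMP antibody-K) after 30 min at room temperature.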
# Menin MLL FP FL – menin-MLL binding inhibition, fluorescein peptide; Fluorescence polarization, fluorescein-MLL peptide displacement from menin; FP activity change, % at 61.4 µM; AID 1766; 290,000 tested, under 10 active; inconclusive = falling polarisation curve, or a change in total fluorescence; inactive = total fluorescence flat and polarisation flat or rising; no compound was filed as active; the % refers to the polarisation; negative = inhibition;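 further: % of control where 0% means no effect; inhibitors lower the polarisation; unlabelled MLL peptide was the positive control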
# Sfp PPTase inh – inhibitors of Bacillus subtilis Sfp phosphopantetheinyl transferase; Potency, µM, for the others: max response, negative = inhibition, usual class: inhibitors; Biochemical Sfp PPTase activity, qHTS; actives 3.5% (n = 310,000); active means well fitted inhibition curve with a large enough effect; inconclusive means small, poorly fitted or top-dose-only effect, or another doubt; inactive means no such curve, though single readings can be large or run the other way;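 further: the enzyme is Sfp with the accession as filed and its product quenches rhodamine fluorescence; potency means the concentration at half of the fitted maximal effect; 0% = enzyme reaction without inhibitor and -100% = no enzyme wells; top concentration of the series not given in the record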
#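 Step 1, compound plus 15 nM Sfp-PPTase, 15 min, room temperature. Step 2, add rhodamine-CoA (5 uM) and BHQ-2-YbbR (12.5 uM). Step 3, read 525/598 nm fluorescence at 0 and 30 min.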
# TRPML1 inh – blocks the human TRPML1 channel; Q9GZU1; TRPML1-inducible cells, Ca2+ dye fluorescence, FDSS; stronger effect = lower value; inhibition of EC80 agonist-evoked calcium signal; activity change, negative = inhibition, % (no concentration beside the values); actives 0.02% (n = 390,000); AID 624415; in the data active means activity change below about -50%; inconclusive means about -30% to -50%; inactive means above about -30%;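 further: stimulus is agonist 54-4 at its EC80 concentration; on the % scale 0 is the no-effect control and ±100 the full control effect; compound concentration not given in the record; the text of the record puts the active cut at -80%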
# Target sequence (Q9GZU1 whole entry, looked up): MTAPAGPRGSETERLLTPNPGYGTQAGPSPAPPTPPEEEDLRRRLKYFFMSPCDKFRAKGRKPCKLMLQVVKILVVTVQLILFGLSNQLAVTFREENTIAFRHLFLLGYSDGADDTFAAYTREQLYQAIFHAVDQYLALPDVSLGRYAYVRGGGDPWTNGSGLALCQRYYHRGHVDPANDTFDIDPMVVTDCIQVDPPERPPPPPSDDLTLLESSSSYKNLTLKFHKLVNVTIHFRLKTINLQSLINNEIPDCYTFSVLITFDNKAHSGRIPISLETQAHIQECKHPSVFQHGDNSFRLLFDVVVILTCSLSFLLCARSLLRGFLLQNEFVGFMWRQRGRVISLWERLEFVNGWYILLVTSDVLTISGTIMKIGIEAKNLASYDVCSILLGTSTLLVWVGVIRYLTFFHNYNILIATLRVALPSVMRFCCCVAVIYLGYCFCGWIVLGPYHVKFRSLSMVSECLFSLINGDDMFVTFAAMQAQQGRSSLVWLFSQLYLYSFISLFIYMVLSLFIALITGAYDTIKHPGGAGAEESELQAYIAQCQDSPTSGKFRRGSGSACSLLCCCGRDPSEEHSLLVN
#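 Calcium fluorescence in TRPML1-DL cells induced overnight with Tet: a 110 s read after compound pin addition, then a 110 s antagonist read after challenge with 54-4 at 4 uM final (EC80).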
# Active calls of the source: *; ? = inconclusive; nt = no result given; [ ] = another dose, or the depositor's remark. This is a random part of the collection; overall some 4.9% were active at least once.
SMILES,ClpP mod,TRPV1 PAM,gsp antagonist,gsp agonist,Menin MLL FP FL,Sfp PPTase inh,TRPML1 inh
CCOC(=O)N1CCN(c2ccnc3cc(Cl)ccc23)CC1,nt,-3.9,-21.9%,-0.8%[15.4 µM],-1.5,12.0%,-0.5
CC(C)c1ccc(NC(=S)N(C)CCc2ccccn2)cc1,0.7%,1.1,-20.4%,15.7%[15.4 µM],-0.6,6.4%,9.7
O=C(NCc1ccc(F)cc1)C1CCN(S(=O)(=O)c2cccc3nonc23)CC1,nt,-18.4,11.0%,4.0%,0.7,15.2%,-8.6
CC(C)(C)OC(=O)C[C@@H]1C/C=C\C[C@H](CC(=O)N(CCO)Cc2ccccc2)C(=O)N2CCC[C@H]2COC1=O,-1.2%,nt,-10.7%,nt,nt,nt,1.0
O=C1CC(N2CCC(Cc3ccccc3)CC2)C(=O)N1CCc1ccccc1 (centres undefined),-1.8%,0.6,-19.1%,-4.4%,-1.7,56.2µM*,0.9
CCC(=O)c1ccc(OCC(O)CNCCc2ccc(Cl)cc2)cc1 (centres undefined),1.4%,-6.8,4.6%,-2.1%,6.1,-12.5%,-2.7
COc1ccc(N2CCCn3c2nc2c3c(=O)n(CCN3CCOCC3)c(=O)n2C)cc1,1.0%,6.7,-11.2%,-8.0%,2.6,16.0%,-8.0
CSc1nc2ccccc2cc1/C=C(\C#N)c1ccccc1,-13.8%,12.7,7.6%,5.2%,5.3,-2.0%,47.2
Cn1c(=O)c(C(=O)N2CCc3ccccc32)cc2cccnc21,-0.6%,-11.7,-2.6%,10.5%,nt,nt,-1.1
C=CCOc1c(CNc2cccc(C(=O)O)c2)cccc1OCC,31.6µM*,-6.5,-14.2%,3.9%,-7.1,-3.5%,-8.2
O=S(=O)(NCCC1=CCCCC1)c1ccc(OC(F)(F)F)cc1,0.7%,-10.7,2.5%,1.2%[15.4 µM],nt,nt,-7.1
CCOc1ccc(NC(=O)/C=C/c2ccc(OC)cc2)c([N+](=O)[O-])c1,0.4%,-1.3,-10.6%,-2.4%[15.4 µM],7.4,-4.7%,-0.6
COc1ccc(-n2nc(C(=O)NCC(=O)NCc3ccco3)c3ccccc3c2=O)c(OC)c1,-1.2%,6.7,-1.4%,-1.0%,0.9,0.7%,2.4
CCc1nc2sc3ccccc3c(=O)c2c(=O)n1Cc1ccco1,-4.3%,2.0,-3.9%,18.4%,8.6,39.8µM*,-12.7
Cc1ccc(C(=O)Oc2cc(N)n(S(=O)(=O)c3ccc(C)cc3)n2)cc1,1.0%,26.1,13.9%,-9.7%,0.1,-3.4%,12.1
O=S(=O)(N1CCCCC1)N1CCN(CC(O)COc2ccc3cc(Br)ccc3c2)CC1 (centres undefined),1.3%,5.8,-22.8%,?,-1.4,1.9%,-0.9
CC(C)(C)n1ncc2c(=O)n(CC(=O)NCc3ccco3)cnc21,0.0%,2.0,-7.0%,11.2%,0.1,?,-8.1
O=C(NN=C1C2CC3CC(C2)CC1C3)c1cc(Cl)ccc1O,28.2µM*,7.4,0.9%,19.2%,3.9,5.1%,-27.5
CCCc1cc(C(=O)Nc2cnn(Cc3ccc(F)cc3)c2)no1,-0.5%,-30.1,-12.3%,?,2.2,8.1%,nt
CCn1c(CCCNC(=O)c2ccc(F)cc2)nc2ccccc21,0.6%,-3.8,1.4%,37.4%,1.7,10.4%,3.6
O=C(CNC(=O)c1cccc(Cl)c1)NCCCSc1ccccc1,0.2%,1.8,-9.0%,10.6%[15.4 µM],nt,nt,9.0
CCCCC(CC)CNC(=O)Cn1c(=O)[nH]c2ccsc2c1=O (centres undefined),-1.5%,-0.5,3.5%,-6.1%,-1.1,4.0%,-10.8
C/C(=N/NC(=O)C1CCN(S(=O)(=O)c2ccc(C)cc2)CC1)c1cccc([N+](=O)[O-])c1,0.9%,3.5,-4.0%,10.4%,5.8,3.5%,5.2
Cc1ccc(C(=O)OCC(=O)NCc2ccco2)cc1C,1.3%,-6.3,8.7%,-33.8%,nt,nt,-4.0
CN(C)S(=O)(=O)N1CCN(c2ccc([N+](=O)[O-])c(N3CCOCC3)c2)CC1,nt,-3.5,-6.6%,-7.9%,1.3,20.7%,9.8
O=C(NCCN1CCOCC1)c1ccccc1Oc1ccccc1,0.5%,-3.2,4.7%,0.1%,2.8,-15.2%,33.0
CC(C)(C)NC(=O)C(c1cccs1)N(Cc1cccs1)C(=O)c1ccc(CN2CCOCC2)o1 (centres undefined),nt,-7.8,6.3%,7.6%[15.4 µM],-0.6,-1.9%,-5.8
CC1=CSC2=NC(=O)/C(=C/c3cccc(OC(=O)c4ccco4)c3)C(=N)N12,1.1%,?,0.5%,17.8%,11.6,6.4%,-14.9
O=C(COC(=O)CNC(=O)c1ccccc1F)Nc1cccc(S(=O)(=O)N2CCCCCC2)c1,-0.6%,1.3,-4.8%,?,9.3,9.2%,15.1
CCOc1ccccc1N1CC(C(=O)N2CCOCC2)CC1=O (centres undefined),nt,-10.8,11.9%,-20.3%,-8.4,-1.2%,13.3
COc1cccc(C(=O)Nc2ccc(C(F)(F)F)n(C)c2=O)c1,nt,-6.9,1.2%,10.7%,1.0,-4.1%,2.9
CCOC(=O)c1cc2c(=O)n3cccc(C)c3nc2n(Cc2ccco2)c1=NC(=O)c1cccnc1,14.1µM*,13.9,9.9%,?,5.4,25.1µM*,-0.7
N#CC1=C(N)OC2=C(CC/C2=C\c2ccc(F)cc2)C1c1ccc(F)cc1 (centres undefined),nt,7.6,nt,nt,?,10.8%,nt
COC(=O)c1ccc(CSc2nnc(Nc3cccc(OC)c3)s2)o1,0.8%,6.1,2.1%,-26.2%,2.0,-0.3%,-7.7
COc1cc(NC(=O)C2CCCO2)c(OC)cc1NC(=O)c1ccccc1 (centres undefined),0.3%,1.2,-15.1%,-10.9%,0.4,7.8%,15.6
COc1ccc(C(=O)OCc2cc(=O)n3ccsc3n2)cc1F,0.1%,nt,-12.5%,8.4%[15.4 µM],nt,nt,14.1
Cc1ccc(NS(=O)(=O)c2cccc(C(=O)N3CCCCC3)c2)cc1,76.8%,nt,-16.0%,-7.9%,nt,nt,-2.2
CCCCn1c(SCC(=O)c2c(N)n(C3CC3)c(=O)[nH]c2=O)nc2cc(S(N)(=O)=O)ccc21,-2.7%,22.3,7.1%,-63.4%[inhibitor],nt,nt,9.7
COc1ccnc(Oc2ccc(F)cc2)c1C#N,nt,4.0,2.8%,-1.1%,8.0,5.3%,-19.4
O=C(c1cccc(F)c1)N1CCC(O)(c2cccnc2)CC1,-0.9%,-2.5,10.7%,24.8%,-0.1,13.8%,-8.5
O=C(NCc1nnnn1-c1ccccc1)c1ccc2ccccc2c1,-14.6%,nt,nt,5.4%,nt,nt,-7.9
CCn1c(SCc2ccc(F)cc2)nc2ccccc2c1=O,-5.8%,-16.6,-2.4%,0.7%[15.4 µM],2.2,-24.8%,13.8
Cc1cc(C)c2c(N)c(C(=O)c3ccc(Cl)cc3)sc2n1,-0.3%,4.7,?,-4.9%,5.1,-22.6%,-10.6
CCc1nc2ccccc2c(C(=O)OCc2nc3ccccc3c(=O)[nH]2)c1C,nt,nt,17.7%,31.8%,nt,nt,13.5
O=S(=O)(NCC1CCCO1)c1ccc(Br)s1 (centres undefined),-2.4%,1.9,9.0%,-51.5%[inhibitor],-1.8,11.2%,-12.8
Cc1cc(=O)oc2cc(NC(=O)c3ccnn3C)ccc12,2.9%,?,5.1%,17.7%,nt,11.0%,12.8
NC(=O)NCc1cccs1,nt,-2.5,14.1%,5.1%[15.4 µM],-0.9,16.8%,12.9
CCOc1ccc(C(=O)CN2CCN(S(=O)(=O)c3ccc(OC)cc3)CC2)cc1,-2.1%,4.5,7.6%,?,2.6,7.6%,1.6
Cc1ccc(-n2cc[nH]c2=S)c(C)c1,nt,-2.0,6.1%,2.6%[15.4 µM],-0.6,-64.7%,13.2
COc1ccccc1NC(=O)CN(Cc1ccco1)C(=O)c1ccc(=O)[nH]c1,nt,-0.7,10.8%,-32.7%[15.4 µM],3.1,-4.7%,-1.9
CCN(C[C@H]1N[C@@](Cc2ccccc2)(C(=O)OC)[C@H]2C(=O)N(Cc3ccccc3)C(=O)[C@@H]12)C(=O)NC(C)C,-1.8%,nt,-5.4%,nt,nt,nt,-8.4
CCOCCc1nnc(NC(=O)CN2C(=O)c3ccccc3C2=O)s1,-1.1%,2.7,-2.5%,24.6%,-2.1,-10.3%,-8.0
CCc1cccc(NS(=O)(=O)c2ccc3c(c2)oc(=O)n3C)c1,-1.4%,4.5,-5.2%,-39.5%[inhibitor],3.5,12.7%,-10.5
O=C(O)COc1ccccc1/C=C1\SC(=S)N(NC(=O)c2ccccc2O)C1=O,-2.1%,-6.6,-3.6%,nt,nt,nt,-9.5
O=C(CSc1nnc(-c2ccccc2)c2ccccc12)NCC1CCCO1 (centres undefined),nt,-0.8,nt,nt,0.3,-29.0%,nt
CCC(=O)c1ccc(OCC(=O)O)cc1,0.1%,12.0,2.0%,-44.2%[inhibitor],-2.1,3.1%,-1.4
CNc1nc(NCc2ccccc2)nc(N)c1[N+](=O)[O-],0.7%,14.6,3.5%,-39.9%[inhibitor],1.0,13.0%,1.8
CC1CCN(C(=O)c2[nH]cnc2C(=O)NCC(=O)OCc2ccccc2)CC1,0.8%,11.3,0.7%,nt,1.3,9.1%,6.7
Brc1ccc(-c2cn3ccccc3n2)s1,?,7.6,-7.7%,22.8%,2.0,12.2%,9.9
CCOC(=O)c1ccc(NC(=O)NC2=NCCS2)cc1,-0.5%,nt,nt,-23.5%,nt,nt,3.3
CC(C)(C)C1CCC2(CC1)C(C#N)=C(SCC(=O)NC1CCCCC1)NC(=O)C2C#N (centres undefined),1.4%,4.7,?,1.6%,4.4,16.6%,12.3
